Rango dissoc inh: prevents RanGTP from dissociating the Rango-importin beta complex; O95149+P62826; Biochemical FRET Rango-importin beta, RanGTP-induced dissociation; Potency, µM (top dose mostly 46.1 µM), inactives show at the highest dose activity change, negative = inhibition; 340,000 compounds, 0.071% hits; AID 540253; active means falling FRET ratio curve, often poorly fitted, with flat reads before Ran was added; inconclusive means other falling curves, or compound fluorescence or quenching; inactive means flat or rising ratio curve;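 also: potency is read from the fitted curve at half-maximal effect; % of control where 0% means no effect; nearly all actives have a fitted effect of over 45% in size; -100% = wells without RanGTP and RCC1; the record marks most hits as doubtful in a second field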
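Rango/importin beta premix (0.1/0.25 uM final), PBS + 1 mM DTT + 0.02% Tween-20 + 0.1% BSA; cpd 5 min RT; FRET pre-read; + RanGTP-RCC1 (0.6 uM Ran, 2 mM GTP, 0.2 uM RCC1); 45 min RT; FRET post-read, ex 430, em 486/530 nm.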
Rango complex inh: Rango-importin beta binding inhibition; Q14974; Potency, µM (highest dose often 92.2 µM), for the others: top-dose inhibition of complex formation; 340,000 compounds, 0.031% hits; AID 540263; Rango CFP/YFP FRET sensor + importin beta, 45 min; active = rising FRET ratio curve, often small or poorly fitted; inconclusive = mostly compound fluorescence or quenching in the first reads; inactive = flat curves in all reads;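 also: potency is read from the fitted curve at half-maximal effect; 0% = DMSO wells and 100% = buffer wells lacking importin beta; nearly all actives have a fitted effect of over 15% in size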
Target sequence (Q14974 whole entry, looked up): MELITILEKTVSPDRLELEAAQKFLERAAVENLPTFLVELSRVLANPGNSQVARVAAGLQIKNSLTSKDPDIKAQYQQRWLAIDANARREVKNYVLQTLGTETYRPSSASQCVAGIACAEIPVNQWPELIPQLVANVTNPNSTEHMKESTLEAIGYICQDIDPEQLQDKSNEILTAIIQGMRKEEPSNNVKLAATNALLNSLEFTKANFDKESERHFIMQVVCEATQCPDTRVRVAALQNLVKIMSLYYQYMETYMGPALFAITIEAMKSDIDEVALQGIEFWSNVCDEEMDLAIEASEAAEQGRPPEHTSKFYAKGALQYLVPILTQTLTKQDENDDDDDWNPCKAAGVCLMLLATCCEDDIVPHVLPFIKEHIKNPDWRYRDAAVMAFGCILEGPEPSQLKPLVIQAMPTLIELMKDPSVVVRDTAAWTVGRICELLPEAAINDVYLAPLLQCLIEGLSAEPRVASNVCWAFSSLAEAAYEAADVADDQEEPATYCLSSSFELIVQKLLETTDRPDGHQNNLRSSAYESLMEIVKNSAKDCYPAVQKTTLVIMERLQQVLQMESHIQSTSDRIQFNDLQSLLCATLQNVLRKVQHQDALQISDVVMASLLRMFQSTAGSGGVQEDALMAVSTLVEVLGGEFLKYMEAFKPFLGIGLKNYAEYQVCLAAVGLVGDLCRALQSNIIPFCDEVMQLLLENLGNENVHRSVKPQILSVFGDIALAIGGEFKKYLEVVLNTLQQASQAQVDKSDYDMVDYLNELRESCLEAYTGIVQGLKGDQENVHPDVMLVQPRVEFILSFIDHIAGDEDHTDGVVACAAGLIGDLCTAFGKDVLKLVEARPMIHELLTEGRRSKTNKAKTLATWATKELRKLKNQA
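Inhibition scored from the CFP 486 nm/YFP 530 nm FRET ratio 45 min after adding 0.125 microM importin beta to 50 nM Rango biosensor preincubated 5 min with compound (room temperature, PBS with DTT, Tween-20, BSA). No-importin wells as positive control.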
GLA inh pH 4.5: inhibitors of human alpha-galactosidase A at pH 4.5; P06280; purified enzyme, 4-MU-alpha-Gal fluorescence, pH 4.5; activity change, negative = inhibition, % at 105 µM; 230,000 tested, under 10 active; inconclusive = small, poorly fitted or top-dose-only inhibition, or a rising curve; inactive = flat fitted curve, though single readings scatter; no compound was filed as active;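 also: 0% = full activity with enzyme and -100% = basal without enzyme; dose as in the result columns while the protocol names 77 µM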
miR-21 FLuc: miR-21 reporter, rising signal. HeLa miR-21 FLuc reporter, luciferase, 48 h. Potency, µM (doses to about 38.3 µM), without a hit: at the highest dose reporter change, positive = more light. 340,000 tested, under 10 active; active = well fitted rising curve with a large enough effect; inconclusive = small, poorly fitted or top-dose-only effect; inactive = no such curve, though single readings can be large or run the other way;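 also: % of control where 0% means no effect; miR-21 action dims this reporter so a rising signal means less miR-21 action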
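HeLa miR-21-FLuc reporter line, endogenous miR-21; 2000 cells/well in DMEM/10% FBS; compound titration up to ~40uM final, 48 h, 37 degree Celsius; luciferase detection reagent, 15 min lysis, CCD luminescence.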
An asterisk follows results filed as active; ? = inconclusive; . = no result given; & = joins results of further samples. A portion of the library; the hit share may differ from the screen's.

SMILES	Rango dissoc inh	Rango complex inh	GLA inh pH 4.5	miR-21 FLuc
Cn1c(=O)c2c(nc(Oc3ccccc3Br)n2C)n(C)c1=O	3.6%	-3.9%	.	4.7%
CCCc1cc(C(=O)Cc2ccc(F)cc2)c(O)cc1O	1.3%	2.3%	8.4	6.1%
COc1ccccc1N1CCN(CCN(C(=O)c2ccc(F)cc2)c2ccccn2)CC1	1.4%	1.4%	-10.0	.
COc1ccc(-n2nc(C(=O)NCC(=O)N3CCN(c4ccccc4OC)CC3)c3ccccc3c2=O)c(OC)c1	18.2%	-3.6%	.	-43.7%
COc1cccc(-n2c(C)nnc2SCC#N)c1	2.8%	-4.2%	4.0	-5.4%
CC(C)OC(=O)c1ccc(NC(=O)c2cccc(-n3cnnn3)c2)cc1	7.1%	-3.1%	.	.
CCOc1ccc(-c2nnc(N3CCOCC3)c3ccccc23)cc1	0.8%	3.4%	.	-0.5%
CC(=O)Nc1ccc(S(=O)(=O)NCC2CCC(C(=O)NCCC3=CCCCC3)CC2)cc1 (centres undefined)	-4.2%	-1.3%	-0.2	-9.9%
N#Cc1nc(-c2ccc([N+](=O)[O-])cc2)oc1N1CCCCC1	-3.8%	0.7%	.	0.8%
CSc1cccc(NC(=O)CC(C)n2ccnc2)c1 (centres undefined)	0.4%	3.5%	.	1.9%
CCOc1ccc(CC(=O)NNC(=S)Nc2ccc(OC)c(OC)c2)cc1	0.0%	-0.6%	-1.2	-8.4%
C1=CC2C3C=CC(C3)C2C1 (centres undefined)	-6.9%	-1.4%	.	.
Cc1ccc(NS(=O)(=O)c2ccc(C(=O)NC3CCN(Cc4ccccc4)CC3)cc2)cc1	5.0%	1.6%	.	.
O=C(O)CCCn1cc(NC(=O)COc2ccc(F)cc2)cn1	0.8%	-0.5%	.	-0.6%
O=C1c2ccccc2[C@@H]2CC(O)C(O)CCN12 (some centres undefined)	16.2%	-0.6%	.	.
O=C(c1ccccc1)c1ccccc1N/C=C/c1nnnn1-c1ccccc1	-1.5%	-1.0%	-0.8	-2.2%
COCCOC(=O)c1[nH]c2c(c1C)C(=O)CC(c1ccc(OC)c(OC)c1)C2 (centres undefined)	15.7%	0.1%	.	11.7%
O=C1C(Nc2ccccc2)=C2CCCC=C2N1c1ccccc1	6.4%	-0.2%	1.3	-59.9%
CC1CC(C)CN(S(=O)(=O)c2cc3c4c(c2)C(C)C(=O)N4CCC3)C1 (centres undefined)	5.0%	6.2%	.	-5.9%
CCN(CC)CCCNC(=O)Cn1ccc2ccccc2c1=O	-2.5%	?	0.4	-2.2%
Cc1ccc(-n2ncc3c(=O)n(CC(N)=O)cnc32)cc1	-14.0%	-1.9%	.	1.6%
COc1cc(OC)c(OC)cc1CNCc1ccco1	-6.7%	0.8%	.	-2.0%
COc1ccc(CN(CC(=O)NCc2ccccc2)C(=O)CCC(=O)Nc2ccccn2)cc1	-1.3%	-0.8%	.	1.3%
CCNc1nc(NC(C)C)nc(N(C#N)CCOc2ccc(Cl)cc2Cl)n1	-16.1%	-2.7%	-18.7	-0.8%
C/C(=N\OCC(=O)Nc1ccccc1C(=O)O)c1cccs1	14.8%	0.0%	7.6	-54.6%
The list continues.
SMILES	Rango dissoc inh	Rango complex inh	GLA inh pH 4.5	miR-21 FLuc
CCc1ccc(CNC(=O)C2CCN(S(=O)(=O)N3CCC4(CC3)OCCO4)CC2)cc1	-10.0%	-1.8%	-3.9	3.9%
COc1ccc(NC(=O)Nc2ccc3c(c2)C(=O)N([C@H](C)CO)C[C@H](C)[C@@H](CN(C)C(=O)Nc2ccc(OC)cc2)O3)cc1	-9.0%	-3.3%	.	.
Cc1noc(C)c1COc1ccccc1C(=O)NCCc1ccccc1	-6.5%	0.6%	.	.
CCOC(=O)N1CCC(N2CC34C=CC(O3)C(C(=O)Nc3ccc(OCC)cc3)C4C2=O)CC1 (centres undefined)	-3.2%	0.5%	-5.5	-2.7%
CCCCOC(=O)c1cc(=O)[nH]c2ccc(C)cc12	-1.3%	-0.7%	0.1	-13.5%
COc1ccc(CNC(=O)COC(=O)Cc2ccc(Br)cc2)cc1	-3.9%	?	.	.
N=c1sccn1CC(=O)Nc1ccc2c(c1)CCC2	-11.4%	-0.1%	1.8	0.0%
COc1ccc(-n2nc(C(=O)NCC(=O)Nc3cc(OC)c(OC)c(OC)c3)c3ccccc3c2=O)cc1Cl	0.4%	-2.1%	.	13.6%
CCOC(=O)C(NC(C)=O)(N1CCOCC1)C(F)(F)F (centres undefined)	.	.	1.4	-8.2%
COc1ccc(NCC(=O)Nc2ccc(C#N)cc2)cc1Cl	?	-0.9%	-10.1	1.4%
COc1ccc(CCNC(=O)CC(=O)N/N=C/c2ccc(Br)cc2)cc1OC	-3.4%	6.1%	.	1.6%
CCOC(=O)c1sc2nc3n(c(=O)c2c1C)CCC(C)CC3 (centres undefined)	-3.7%	0.3%	2.6	-15.0%
CCOc1ccc(OCCC(=O)N(CCC2=CCCCC2)c2c(N)n(Cc3ccccc3)c(=O)[nH]c2=O)cc1	12.5%	0.1%	.	.
CC(=O)n1cc(C2C(=O)CC(C)(C)CC2=O)c2ccccc21	-8.9%	-1.3%	-14.9	-6.3%
Cc1csc(N2CCCC2c2nc3cc(C(F)(F)F)ccc3n2CCOCCO)n1 (centres undefined)	-8.4%	0.8%	.	.
C/C(=N\NC(=O)Cn1cc([N+](=O)[O-])cn1)c1ccc(O)cc1	-6.6%	-2.7%	-3.0	-6.1%
O=C1CCC(C(=O)OCc2cc(=O)oc3ccc4ccccc4c23)=NN1	1.5%	-0.1%	7.8	0.2%
O=[N+]([O-])c1cccc(/C=N/NS(=O)(=O)c2ccccc2)c1	-1.2%	2.3%	-2.5	3.5%
Cc1ccc(OCc2nnc(SCC(=O)c3ccccc3)n2Cc2ccco2)cc1	8.5%	-3.9%	-10.3	-7.0%
Cc1ccccc1N1CCN(CCC(=O)Nc2ccc(F)cc2)CC1	-18.6%	-2.9%	.	16.6%
COc1cc(/C=C2\SC(=S)N(NC(=O)c3cccnc3)C2=O)ccc1O	-11.9%	20.1%	1.6	-2.7%
CCn1cc(/C=N/N=C2\CCC3C4CCc5cc(O)ccc5C4CC[C@]23C)c(C)n1 (some centres undefined)	-0.6%	0.1%	-1.6	-0.6%
Cc1ccccc1C(=O)N1CC(=O)Nc2ccc(F)cc2C1c1ccc(F)cc1 (centres undefined)	2.7%	0.3%	.	2.7%
C/C(CC(=O)Nc1cc(C)ccn1)=N\NC(=O)COc1cccc(C)c1	.	.	3.2	-24.5%
COCCNC(=O)CN(c1cc(Cl)ccc1OC)S(C)(=O)=O	1.3%	-0.6%	-0.9	-2.1%

A few values from above:
COCCNC(=O)CN(c1cc(Cl)ccc1OC)S(C)(=O)=O | Rango dissoc inh: 1.3%
C/C(=N\OCC(=O)Nc1ccccc1C(=O)O)c1cccs1 | Rango dissoc inh: 14.8%

Remaining list, next part.
SMILES	Rango dissoc inh	Rango complex inh	GLA inh pH 4.5	miR-21 FLuc
COc1ccc(N(C(=O)c2snc(C(N)=O)c2N)C(C(=O)NC2CCCC2)c2ccc(OC)c(OC)c2)cc1 (centres undefined)	-15.6%	-2.9%	.	-2.0%
CCC(C)NC(=O)C1c2ccccc2C(=O)N1Cc1ccccc1OC (centres undefined)	-4.0%	0.5%	-2.7	-4.3%
COc1ccc(C=Nc2ccc3[nH]ncc3c2)c(O)c1	-21.5%	-1.7%	8.4	12.6%
CCN(CC)S(=O)(=O)c1ccc(C(=O)NCc2ccc3[nH]c4c(c3c2)CCCC4)cc1	-23.5%	?	-8.8	-1.2%
C=CCOC(=O)C1=C[C@H](c2csc3ccccc23)[C@@H](CCCO)[C@H](OCC)O1	-19.8%	-0.8%	-14.6	0.6%
COc1ccc(C(CC(=O)O)NC(=O)c2ccccc2)cc1OC (centres undefined)	15.4%	-0.4%	4.9	-4.3%
COc1cccc(N2C(=O)Nc3ccccc3C2(O)C(=O)NCc2ccc3c(c2)OCO3)c1 (centres undefined)	16.6%	0.9%	3.4	0.1%
CCC(CC)C(=O)Nc1ccc(Nc2ccccc2)cc1	-1.0%	-2.7%	3.5	-16.4%
COc1ccccc1CNC(=O)CN1C(=O)COc2ccc(S(=O)(=O)NC3CCCC3)cc21	-6.0%	0.4%	.	-0.1%&2.9%
CN(C)c1nc(SCC#N)nc(N(C)C)n1	1.7%	0.7%	-5.8	-3.7%
CC(C)(C)c1ccc(-c2nnc(SCC(=O)c3ccc4c(c3)OCCO4)o2)cc1	10.0%	-0.9%	-1.3	-10.9%
Oc1[nH]c2ccc(Br)cc2c1N=Nc1ccc(F)cc1	?	?	.	-11.6%
Cc1ccc(NC(=O)CCNC(=O)c2ccccc2Cl)cc1S(=O)(=O)N1CCOCC1	-5.9%	-0.9%	.	.
Cc1nc(-c2ccc(C(=O)N3CCCC3)cc2)cs1	1.6%	-0.4%	-3.6	-41.9%
CO[C@@]1(NC(=O)CSCC#N)C(=O)N2C(C(=O)O)=C(CSc3nnnn3C)CS[C@@H]21	-4.2%	-0.5%	2.0&4.2	-3.0%
Cc1cc(C(=O)CSc2nc3ccccc3[nH]2)c(C)n1Cc1ccco1	?	-10.2%	0.0	4.2%
CC(C)c1nc(CN(C)C(=O)N[C@H](C(=O)N[C@@H](Cc2ccccc2)C[C@H](O)[C@H](Cc2ccccc2)NC(=O)OCc2cncs2)C(C)C)cs1	.	.	?	21.9%
CC(C(=O)NC(=O)NC1CCCCC1)N1CCN(C(c2ccccc2)c2ccccc2)CC1 (centres undefined)	-9.8%	0.6%	-1.9	-0.9%
CCOC(=O)c1c(C)c(C(=O)Nc2ccc(F)cc2)c(C)n1C	5.9%	-2.2%	0.6	-13.8%
CCOC(=O)c1sc2nc(CC(=O)OC)nc(N3CCN(c4ccc(OC)cc4)CC3)c2c1C	-5.5%	-0.6%	-12.9	17.5%
CC1CN(C(=O)c2ccc(C(=O)c3ccccc3)cc2)CC(C)O1 (centres undefined)	1.0%	-1.5%	-0.9	-0.5%
O=C(CCC(=O)N(c1ccc(F)cc1)C(C(=O)NC1CCCC1)c1ccncc1)Nc1cccnc1 (centres undefined)	-18.8%	0.6%	2.4	-0.1%
CC(=O)c1ccc2c(c1)C1C=CCC1C(c1ccc(S(=O)(=O)N3CCOCC3)cc1)N2 (centres undefined)	2.3%	?	-9.2	-16.8%
O=C(O)CCn1c(=S)n(CCC(=O)O)c2ccccc21	1.7%	-1.0%	-1.6	-3.1%
CCOC(=O)c1ccc(-c2csc(NC(=O)CN3CCC(C)CC3)n2)cc1	-1.4%	-3.3%	.	-13.1%
Further records
SMILES	Rango dissoc inh	Rango complex inh	GLA inh pH 4.5	miR-21 FLuc
COc1ccc(CCN(C)Cc2cccc3ccccc23)cc1OC	-20.3%	-2.9%	.	-2.2%
CCCn1c(CN2CCCCC2CC)nc2c1c(=O)n(C)c(=O)n2C (centres undefined)	17.2%	-0.1%	0.0	-2.6%
CO/N=C(\Cn1ncc(NC2CCCCC2)c(Br)c1=O)c1ccc(Cl)cc1	-1.4%	1.1%	2.4	-4.9%
COc1cccc(-n2cc(CN(C)Cc3nc(Cc4ccccc4)no3)cn2)c1	-6.5%	-2.4%	-2.4	-7.6%
CCCc1cc(=O)[nH]c(Nc2ccc(OC)c(Cl)c2)n1	-15.9%	-2.2%	0.6	1.2%
CC1CN(C(=O)CSc2cn(CC(=O)N3CCOCC3)c3ccccc23)CC(C)O1 (centres undefined)	-5.1%	1.5%	.	0.4%
COc1ccc(S(=O)(=O)NC(C)C(=O)N2CCCC2)cc1Cl (centres undefined)	7.0%	0.5%	.	-1.0%
CCCN1C2CCCC1CC(NC(=O)C1CCCCC1)C2 (centres undefined)	1.8%	-1.6%	0.9	-5.2%
CC(C)N1CCC(N2CCN(C3CCCCCC3)CC2CCO)CC1 (centres undefined)	-4.2%	0.0%	1.9	-1.3%
Cc1ccc(CNC(=O)c2cc(-c3ccccc3)nn2Cc2cc(C)no2)cc1	11.2%	1.1%	.	.
O=C1N(c2ccccc2)C(c2ccccc2)C12CCCCC2 (centres undefined)	-7.0%	?	.	.
CCN1C[C@@H]2[C@@H]3C(=O)N(Cc4ccccc4)C(=O)[C@@H]3[C@](CC)(C(=O)OC)N2C1=NC	23.9%	5.0%	.	.
